High-throughput results (PubChem)
CHT inh: inhibits the human high affinity choline transporter. Q9GZV3. CHT-expressing cells, membrane potential dye, choline response; hits give low values. B-score at 10 µM. 0.86% of 310,000 active. AID 488975;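 active = B-score over 3 SD under the library average, and starting fluorescence ratio not unusually high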;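 note: choline stimulus applied at its EC90 after an EC20 pre-addition; B-score computed on integrated fluorescence ratio after choline addition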
Target sequence (Q9GZV3 whole entry, looked up): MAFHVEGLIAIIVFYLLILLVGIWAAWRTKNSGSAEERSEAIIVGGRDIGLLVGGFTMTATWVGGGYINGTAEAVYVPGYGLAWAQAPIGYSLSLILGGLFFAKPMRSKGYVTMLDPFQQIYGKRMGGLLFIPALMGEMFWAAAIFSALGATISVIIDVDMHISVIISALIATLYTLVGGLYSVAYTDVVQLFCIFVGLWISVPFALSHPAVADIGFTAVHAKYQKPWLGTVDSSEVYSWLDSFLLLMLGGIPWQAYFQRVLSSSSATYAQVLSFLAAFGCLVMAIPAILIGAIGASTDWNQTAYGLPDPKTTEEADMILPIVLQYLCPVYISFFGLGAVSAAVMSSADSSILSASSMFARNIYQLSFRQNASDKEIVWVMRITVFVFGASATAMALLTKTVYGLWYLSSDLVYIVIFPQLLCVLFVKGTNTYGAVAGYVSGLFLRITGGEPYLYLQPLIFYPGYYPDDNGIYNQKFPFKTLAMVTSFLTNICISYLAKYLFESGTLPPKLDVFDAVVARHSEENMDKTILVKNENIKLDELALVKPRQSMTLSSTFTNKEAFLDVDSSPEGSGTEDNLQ
Kir21 inh: Kir2.1 (mouse) channel inhibition; B-score at 10 µM; P35561; HEK293-Kir2.1, FluxOR thallium flux fluorescence; hits give low values; 0.85% of 310,000 active;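 active = fluorescence ratio B-score at or below minus 3 SD of library scores, with starting-brightness B-score within 2 SD, cut at about -4.2 in these data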;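 note: channel flux triggered by added potassium and thallium sulfate stimulus; B-score of peak minus minimum fluorescence over baseline after thallium stimulus; more negative B-score means stronger Kir2.1 block with less thallium influx; some compounds called inactive have numbers as strong as hits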
Target sequence (P35561 whole entry, looked up): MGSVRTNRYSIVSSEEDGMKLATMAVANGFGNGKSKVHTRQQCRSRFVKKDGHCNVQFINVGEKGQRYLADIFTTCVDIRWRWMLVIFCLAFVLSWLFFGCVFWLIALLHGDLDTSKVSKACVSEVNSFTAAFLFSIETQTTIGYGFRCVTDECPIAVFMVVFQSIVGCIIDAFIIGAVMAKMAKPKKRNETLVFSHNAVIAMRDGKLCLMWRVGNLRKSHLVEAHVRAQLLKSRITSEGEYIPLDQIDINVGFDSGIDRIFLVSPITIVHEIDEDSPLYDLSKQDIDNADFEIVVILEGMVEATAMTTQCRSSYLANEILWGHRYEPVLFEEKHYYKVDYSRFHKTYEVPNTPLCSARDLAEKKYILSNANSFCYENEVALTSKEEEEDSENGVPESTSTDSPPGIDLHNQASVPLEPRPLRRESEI
Active calls of the source: *; i = inactive; . = not tested or not shown. An excerpt, and most or all hits are left out here.

Value order: CHT inh	Kir21 inh
- CC1CCN(C(=O)c2ccc(S(=O)(=O)Cc3cc(F)ccc3F)c([N+](=O)[O-])c2)CC1
 : i	0.35
- Nn1c(Cc2cccc3ccccc23)nnc1SCCOc1ccc(Br)cc1
 : i	-1.12
- COc1ccc(Cl)cc1N/C(N)=N/c1nc(C)cc(=O)[nH]1
 : i	-0.06
- CC(C)c1ccc2c(c1)c(SC(C)(C)C)c(CC(C)(C)C(=O)O)n2Cc1ccc(Cl)cc1
 : i	0.52
- CCOC(=O)c1nnsc1-c1ccc(-c2snnc2C(=O)OCC)cc1
 : i	3.66
- Cc1c(NC(=S)NC(=O)c2ccco2)cccc1-c1nc2ncccc2o1
 : i	0.2
- Cc1ccc(-c2ccc(/C=C3\SC(N4CCOCC4)=NC3=O)o2)cc1
 : i	0.58
- COCCNc1nc(-c2cc3ccccc3o2)cs1
 : i	1.49
- CCc1cccc(CC)c1NC(=S)NCCc1c(C)[nH]c2ccccc12
 : i	-0.16
- CCN1CC(CN(C)Cc2nc(COc3ccccc3)no2)CC1=O (centres undefined)
 : i	-0.76
- COc1cc(C(=O)O)cc(Br)c1OC1CCCC1
 : i	-1.74
- CCN1C(=O)CC(C(=O)NCCc2ccc(S(N)(=O)=O)cc2)SC1=Nc1ccc(OC)cc1 (centres undefined)
 : i	0.64
- CC(C)C(=O)Nc1ccc([N+](=O)[O-])cc1Br
 : i	-1.06
- O=C(OCc1ccc(COC(=O)c2ccc(O)cc2)cc1)c1ccc(O)cc1
 : i	-0.07
- CCSc1nnc(Cc2cc(=O)[nH]c(=O)[nH]2)n1-c1cccc(C)c1
 : i	-0.34
- Cn1ncc(N=Cc2ccccc2)c1C(=O)Nc1cccc(Cl)c1
 : i	-1.05
- O=C(CN1C(=O)S/C(=C\c2cccs2)C1=O)Nc1ccc(O)cc1C(=O)O
 : i	0.35
- Cc1ccc(Cn2cc(/C=C/C(=O)O)c(-c3ccccc3)n2)cc1
 : i	-0.28
- CC(C)(C)NC(=O)N1CCCC(C(=O)c2cccc(Cl)c2)C1 (centres undefined)
 : i	0.12
- O=C(Nc1ccncc1)c1cccc(F)c1
 : i	1.92
- C[C@H](NC(=O)c1nc[nH]c1C(=O)N1CCNCC1)C(=O)OCc1ccccc1
 : i	-0.34
- CCOC(=O)N1CCC(NC(=O)CCc2c(C)nc3nc(C)nn3c2C)CC1
 : i	-0.37
- CN(C(=O)COC(=O)c1ccccc1OCc1ccc(Cl)cc1)c1c(N)n(Cc2ccccc2)c(=O)[nH]c1=O
 : i	-3.41
- O=C(Cn1c(=O)sc2ccccc21)N1CCOCC1
 : i	0.36
- COc1ccc(Cn2c(CCC(=O)Nc3ccc(C)c(C)c3)nc3cccnc32)cc1
 : i	0.13
- CCOc1ccc(S(=O)(=O)n2cc(-c3ccccc3)c(N)n2)cc1
 : i	1.07
- CC(C)(CNC(=O)c1cc(Cl)c(O)c(Cl)c1)N1CCCCC1
 : i	0.72
- C=C(C)CSc1nc(N)c(C#N)c(-c2ccc(C)cc2)c1C#N
 : i	-0.8
- O=S(=O)(c1ccccc1)c1nc(-c2ccccc2)oc1N1CCCC1
 : i	0.02
- O=C(Nc1nnc(-c2ccccc2)o1)c1nc2ccccc2s1
 : i	-0.95
- O=C(NCc1ccc2c(c1)OCO2)c1ccc(Br)o1
 : i	0.28
- O=C(COC(=O)c1ccc(Cl)nc1)Nc1cc(S(=O)(=O)N2CCCCC2)ccc1Cl
 : i	-1.11
- COc1cccc(C2/C(=C(/O)c3ccc(C)cc3)C(=O)C(=O)N2Cc2ccco2)c1 (centres undefined)
 : i	0.13
- CCc1ccc(C2C(C(=O)O)c3ccccc3C(=O)N2C)cc1 (centres undefined)
 : i	0
- Cc1ccc(C)c2[nH]c(=O)c(CCNC(=O)CC(C)C)cc12
 : i	-0.05
- Cc1nc(NC(=O)CSc2nc3cccnc3n2Cc2ccccc2)sc1C
 : i	0.02
- Cc1cc(C)n2nc(CC(=O)NC3CCCC(C)C3C)nc2n1 (centres undefined)
 : i	0.73
- Cc1ccc(NC(=O)Cn2ccsc2=N)cc1S(=O)(=O)N(C)C
 : i	0.03
- CC1CCCC(C)N1C(=O)COc1ccc([N+](=O)[O-])cc1Cl (centres undefined)
 : i	0.77
- COc1ccc(S(=O)(=O)Nc2ccc(S(=O)(=O)N3CCOCC3)cc2)cc1
 : i	1.64
- O=C(N/N=C/c1ccc(OC2CSC2)cc1)c1ccc(CN2CCOCC2)cc1
 : i	1.48
- COc1ccc2nc(NC(=O)Cc3ccc(OC)c(S(=O)(=O)N4CCOCC4)c3)sc2c1
 : i	0.29
- CCOc1cc(C2CC(=O)Nc3cc(C)c(C)cc32)ccc1O (centres undefined)
 : i	-0.5
- O=C(CCN1C(=O)/C(=C/c2ccc(Cl)cc2)SC1=S)NC1C=CS(=O)(=O)C1 (centres undefined)
 : i	-0.05
- COc1ccc(CCNC2=CC(=O)N(c3ccc(F)cc3)C2=O)cc1
 : i	-0.41
- CCOC(=O)c1c(NC(C)=O)sc2c1CCC(C=O)=C2Sc1ccccc1
 : i	-1.22
- O=C(NCC(=O)N(Cc1ccco1)C(C(=O)NC1CCCC1)c1ccncc1)c1cccs1 (centres undefined)
 : i	-0.12
- COc1ccc(S(=O)(=O)N2CCC3(CC2)OCCN3S(=O)(=O)c2cccs2)cc1
 : i	-0.6
- COc1ccc(NC(C)=[N+](C)CCNS(=O)(=O)c2ccc(Cl)cc2)cc1
 : i	-1.91
- Cc1cc(C(=O)NNC(=O)CCCCC(=O)NNC(=O)c2cc(C)[nH]n2)n[nH]1
 : i	2.9
- Cc1ccc(C#N)c(SCc2cc3c(cc2Cl)OCO3)n1
 : i	0
- O=C(N/N=C/c1ccoc1)c1cccc([N+](=O)[O-])c1
 : i	0.82
- O=C(C1=C[C@H](c2csc3ccccc23)C[C@H](OCc2ccc(CO)cc2)O1)N1CCN(Cc2ccc3c(c2)OCO3)CC1
 : i	-0.84
- Cc1ccc(NC(=O)CCS(=O)(=O)c2cccc3nonc23)cc1
 : i	-0.06
- CCOc1ccc(-c2[nH]nc3c2C(c2cccnc2)C(C#N)=C(N)O3)cc1 (centres undefined)
 : i	-0.73
- Cc1ccc(C)c(CSc2nnc(-c3cccnc3)o2)c1
 : i	-0.79
- O=C(/C=C/c1ccc(O)c(O)c1)O[C@H](Cc1ccc(O)c(O)c1)C(=O)O
 : .	0.25
- CC(C)(C)c1ccc(C(=O)N/C(=C\c2cccs2)C(=O)NCc2ccco2)cc1
 : i	1.72
- Cc1cc(NS(=O)(=O)c2ccccc2)n(-c2ccccc2)n1
 : i	1.23
- CCOc1ccc(/C=C2\SC(=S)N(Nc3ccccc3)C2=O)cc1OC
 : i	-1

An excerpt of these results, tab-delimited.
smiles	CHT inh	Kir21 inh
COc1cccc(C2/C(=C(/O)c3ccc(C)cc3)C(=O)C(=O)N2Cc2ccco2)c1 (centres undefined)	i	0.13
CCc1ccc(C2C(C(=O)O)c3ccccc3C(=O)N2C)cc1 (centres undefined)	i	0
Cc1ccc(C)c2[nH]c(=O)c(CCNC(=O)CC(C)C)cc12	i	-0.05
Cc1nc(NC(=O)CSc2nc3cccnc3n2Cc2ccccc2)sc1C	i	0.02

Remaining list, next part
Value order: CHT inh	Kir21 inh
- O=C(Nc1nccs1)c1ccc(Br)cc1
 : i	1.45
- O=[N+]([O-])c1ccc(-n2cc(-c3ccccc3)nn2)cc1
 : i	0.04
- CCOC(=O)CCP(=O)(O)C(O)c1ccccc1 (centres undefined)
 : i	0.03
- Cc1nc(-c2ccc(S(=O)(=O)N3CCCCCC3)cc2)cs1
 : i	-0.74
- CCOc1ccc(S(=O)(=O)N(CC)CC)cc1NS(=O)(=O)c1ccc(F)c(F)c1F
 : i	2.21
- Cc1ccc(NS(=O)(=O)c2cc(-c3n[nH]c(=O)c4ccccc34)ccc2C)cc1
 : i	-0.53
- O=C(NNC(=O)C1CC1)c1ccccc1[N+](=O)[O-]
 : i	2.15
- Cc1ccc(C)c(-n2c(CNC(=O)c3ccco3)nnc2SCC(=O)Nc2nnc(C)s2)c1
 : i	0.47
- CC(C)(C)c1ccc(/C=N/NC(=S)NC2CCCCC2)cc1
 : i	0.5
- Cc1ccn2c(CNCCCn3cccn3)c(C(=O)N3CCCCCC3)nc2c1
 : i	1.19
- O=C(Nc1ccccc1)c1ccc(NCCN2C(=O)CCC2=O)c([N+](=O)[O-])c1
 : i	0.29
- CCC(=O)NC(c1ccc(OC)c(OC)c1)c1cc(Cl)c2cccnc2c1O (centres undefined)
 : .	-0.39
- COC(=O)C1(S(=O)(=O)C2(C(=O)OC)CCCC2)CCCC1
 : i	2.52
- O=C(O)CCCN1C(=O)/C(=C\c2ccco2)SC1=S
 : .	-1.78
- COc1cccc2c(=O)c(C(=O)O)c[nH]c12
 : i	-0.23
- CC12CC(O)C3c4ccc(O)cc4CCC3C1CCC2=O (centres undefined)
 : i	-0.42
- Cc1ccc(NC(=O)CCNS(=O)(=O)c2ccc3c(c2)CCC(=O)N3)c(Br)c1
 : i	1.15
- CCCn1c(N)c(N(CCOC)C(=O)c2ccc(N3CCCC3=O)cc2)c(=O)[nH]c1=O
 : i	0.14
- Cc1ccc(NC(=O)C(C)Sc2nnc(-c3cccnc3)o2)cc1 (centres undefined)
 : i	-0.68
- CCn1c(P(C)(=O)O)nc2cc(NC(=O)c3ccccc3Cl)ccc21
 : i	0.72
- COc1ccc(NC(=O)CCCCCN2C(=O)c3cccc([N+](=O)[O-])c3C2=O)c(OC)c1
 : i	0.83
- NS(=O)(=O)c1ccc(CCn2c(=S)[nH]c3ccccc3c2=O)cc1
 : i	0.59
- CCOC(=O)c1nnn(CC(=O)Nc2cc(F)ccc2F)c1C(=O)OCC
 : i	0.84
- Cc1cc(Br)ccc1SCC(=O)OCC(=O)NCc1ccco1
 : i	-1.68
- CSc1ccc(/C=C(/NC(=O)c2ccc(C)cc2)C(=O)Nc2cccc(F)c2)cc1
 : i	1.57
- Cc1nn(C2CCS(=O)(=O)C2)c(Cl)c1/C=C/C(=O)OCC(=O)Nc1ccc2c(c1)OCO2 (centres undefined)
 : i	1.16
- CCn1c(CNC(=O)c2ccco2)nnc1SCC(=O)Nc1cc(F)ccc1C
 : i	0.44
- CCc1ccc(-n2c(=O)c3c(C)c(C)sc3n(CC(=O)NCC3CCCO3)c2=O)cc1 (centres undefined)
 : i	-0.41
- CC(=O)c1cccc(NC(=O)c2cccc(N3C(=O)c4ccccc4C3=O)c2)c1
 : i	-1.12
- CC1(C)CCCC(C)(C)N1CC(O)COCCOc1ccc(Br)cc1 (centres undefined)
 : i	-2.09
- Cc1ccc(S(=O)(=O)CCC(=O)OCC(=O)N2CCc3ccccc32)cc1
 : i	0.06
- COc1ccc(S(=O)(=O)N2CCOCC2)cc1OC
 : i	0.3
- COC(=O)c1ccc(C#Cc2ccccc2)o1
 : i	0.28
- CCCCN(C)CCNC(=O)CN1C(=O)CSc2ccc(S(=O)(=O)N3CCCCC3)cc21
 : i	-0.1
- CCN(c1ccc(OC)cc1)S(=O)(=O)c1nnc(NC(=O)c2ccc(C)cc2)s1
 : i	-0.02
- COc1ccc(-n2nc3ccc(N)cc3n2)cc1Cl
 : i	-0.63
- COc1ccc2[nH]c(=O)c(CN(Cc3ccc(C)cc3)Cc3nnnn3CC3CCCO3)cc2c1 (centres undefined)
 : i	0.1
- Cc1ccccc1C(=O)NNC(=O)Cc1cccc2ccccc12
 : i	-0.19
- Cc1cccc(-c2ocnc2C(=O)Nc2ccccc2NC(=O)c2ccccn2)c1
 : i	0.69
- O=C(c1ccco1)N1CCN(c2cc(=O)n(C3CCCCC3)c(=O)[nH]2)CC1
 : i	-0.07
- CC(NC(=O)c1cc(S(=O)(=O)N2CCCC2)cn1C)c1ccccc1 (centres undefined)
 : i	-1.17
- CSc1nc(-c2ccc(Cl)cc2)c(C#N)c(=O)n1C
 : i	1.45
- CCOc1ccc(C(=O)NCc2ccncc2)cc1
 : i	0.99
- Cc1nc(=O)c(-c2ccccc2)c(C)n1-c1cccc(/C=C/C(=O)O)c1
 : i	-1.77
- O=C(c1ccccc1)C1CCN(C(=O)c2c(F)cccc2F)CC1
 : i	0.62
- O=C(CSCc1ccccc1Cl)NN1C(=O)c2ccccc2C1=O
 : i	-0.55
- CCOc1ccccc1Oc1ccc(C(F)(F)F)cn1
 : i	-2.19
- COCCNC(=O)CN(c1ccc(OC)c(OC)c1)S(=O)(=O)c1ccc(C)cc1
 : i	-0.94
- Cc1ccc(-c2nc(CS(=O)CC(=O)N3CCN(c4ncccn4)CC3)c(C)o2)cc1 (centres undefined)
 : i	-0.86
- O=C(Nc1ccc(Cl)cc1)N1CCC(c2nc(-c3ccc(F)cc3)no2)CC1
 : i	-0.67
- Nc1nonc1-n1nnc(C(=O)N/N=C/c2ccc(Cl)cc2Cl)c1CN1CCCCC1
 : i	-0.09
- COc1ccc(NC(=O)C#Cc2ccccc2)cc1OC
 : i	-0.51
- Cc1ccc2c(c1)=C(c1ccccc1)N(O)CC(=O)N=2
 : i	0.92
- COc1ccc(N(C(C)C(=O)N/N=C/c2ccc(OCC(C)C)cc2)S(C)(=O)=O)cc1 (centres undefined)
 : i	-0.67
- CNC(=O)c1c(NC(=O)c2cccc(N3C(=O)CCC3=O)c2)sc2c1CCCC2
 : i	2.63
- CN(C)/C=C1\C(=O)N(c2ccc(Cl)c(Cl)c2)CS1(=O)=O
 : i	-1.19
- CC(C)(C)n1nnnc1C(c1cccs1)N(Cc1ccccc1)Cc1ccco1 (centres undefined)
 : i	-0.81
- CCOc1ccc(Cc2n[nH]c(=S)n2N)cc1
 : i	-0.45
- CC(=O)NC1c2ccccc2C(=O)N1Cc1ccccc1 (centres undefined)
 : i	1.2
- COc1ccccc1C(=O)COC(=O)CSCC(=O)Nc1cc(C)on1
 : i	0.79
- Cc1nnc(SCC(=O)NCc2cccs2)n1-c1ccccc1
 : i	1.1
- S=c1[nH]nc(C2CC2)n1Cc1ccco1
 : i	0.31
- CC1CCN(C(=O)CNC(=O)c2ccc(Cl)cc2Cl)CC1
 : i	0.66
